Bioassay records: PubChem, National Center for Advancing Translational Sciences (NCATS)
ClpP mod: qHTS Assay for Activators of ClpP; actives 1.9% (n = 340,000); purified B. subtilis ClpP, FRET peptide cleavage, 20 min; Potency, µM (top dose mostly 57.5 µM), inactives show at the top dose activity change, negative = active; ATP-dependent Clp protease proteolytic subunit (Bacillus subtilis (strain 168)), P80244; active = well fitted falling curve with a large enough effect; inconclusive = small, poorly fitted or top-dose-only effect; inactive = no such curve, though single readings can be large or run the other way; further: the source files actives as falling curves though it sought activators and does not explain the sign; nearly all actives have a fitted effect of over 65% in size; many hits overshoot -100%
Target sequence (P80244 whole entry, looked up): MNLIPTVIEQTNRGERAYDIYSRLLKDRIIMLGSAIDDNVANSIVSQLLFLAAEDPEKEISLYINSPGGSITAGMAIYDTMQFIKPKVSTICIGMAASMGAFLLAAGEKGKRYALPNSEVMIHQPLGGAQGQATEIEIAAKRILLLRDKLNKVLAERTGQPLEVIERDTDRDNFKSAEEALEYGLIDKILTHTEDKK
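FRET quenching reversal measured ClpP activation: 10 microg/mL B. subtilis ClpP at pH 8 with the FRET-FV decapeptide, read at 430 nm after 320 nm excitation. The 20-min minus 0-min signal was scaled between DMSO/no-enzyme wells and ADEP (5.8 microM final).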
* = called active by the depositor; ? = inconclusive. Potency means the concentration at half of the fitted maximal effect. This is a subset; the hit share may differ from the screen's.

SMILES,ClpP mod
COCCc1nn2c(=O)cc(COC(=O)c3ccc(OC)c(OC)c3)nc2s1,-5.7%
CCC(Sc1nc(-c2ccccc2F)nc2c1Cc1c(CO)cnc(C)c1O2)C(=O)Nc1cc(C)ccc1C (stereo unspecified),2.4%
COc1ccc(-c2cn3nc(N4CCCC(C(=O)NCc5ccc(Cl)cc5)C4)sc3n2)cc1 (stereo unspecified),2.3%
CCOc1ccc(CNC(=O)CCCn2c(=O)c3cccn3c3cccnc32)cc1,?
CCOc1ccc(-c2noc(CSc3nnc(Cc4ccccc4)n3-c3ccc(F)cc3)n2)cc1,1.1%
O=C(Nc1cccc(Nc2ccccc2)c1)c1cnn2c1NC(=C1CC1)C=C2C(F)F,-4.1%
COc1ccc(S(=O)(=O)N(CC(=O)Nc2ccccc2Cl)Cc2ccccc2)cc1,-0.9%
CS(=O)(=O)c1ncc(N(Cc2ccccc2)Cc2ccco2)c(C(=O)Nc2cccc(C(F)(F)F)c2)n1,-11.8%
Cc1ccc(-n2ncc3c(N(C)Cc4ccccc4)ncnc32)cc1,31.6µM*
COc1ccc(NC(=O)CCS(=O)(=O)c2nc(-c3ccc4c(c3)OCO4)cc(C(F)(F)F)n2)c(OC)c1,4.2%
CCOc1ccc(NC(=O)CCCn2c(C)c3cnn(-c4ccccc4)c(=O)c3c2C)cc1,-22.7%
CCCOc1ccc(C2C(=O)N(C3CCC(C)CC3)CC(=O)N2Cc2cccc(OC)c2)cc1OC (stereo unspecified),1.5%
CCOc1ccccc1Nc1ncnc2c1cnn2-c1ccc(C)cc1,?
COc1ccc(CNc2ncnc3c2cnn3-c2ccc(C)c(C)c2)cc1,?
COC(=O)c1cc2oc3ccccc3c2n1CC(=O)Nc1ccc(F)c(Cl)c1,4.5%
COc1cccc(OC(=O)CSc2nnc(-c3cccs3)o2)c1,68.1%
Cc1ccc(NC(=O)Nc2ccc3nc(N4CCN(C)CC4)cc(C)c3c2)cc1F,4.2%
COCCn1c(SCC(=O)c2cc(C)ccc2C)nc2cc(C(=O)NC3CCCC3)ccc2c1=O,-4.9%
COC(=O)Cn1c(=O)c2cccn2c2cccnc21,4.2%
COC(=O)c1cc2occc2n1Cc1nc(-c2cccc(Br)c2)oc1C,-1.1%
CSc1nn(Cc2ccc(F)cc2)c(N(C(C)=O)C(C)=O)c1S(=O)(=O)c1ccccc1,-1.9%
CCOC(=O)C1=C(CN2CCC(C)CC2)NC(=O)NC1c1ccc(F)cc1 (stereo unspecified),0.4%
CCc1ccc(NC(=O)c2nn(-c3ccc(C)cc3)c(=O)n(C)c2=O)cc1,0.8%
CN1N/C(=C\c2ccccc2)N=C2C(=O)N(C)C(=O)N=C21,-2.0%
CCS(=O)(=O)N1CCc2cc(C(=O)Nc3cc([N+](=O)[O-])ccc3C)ccc21,0.9%

An excerpt from above in order of formula weight, highest first.
SMILES,ClpP mod
COC(=O)c1cc2occc2n1Cc1nc(-c2cccc(Br)c2)oc1C,-1.1%
COc1ccc(CNc2ncnc3c2cnn3-c2ccc(C)c(C)c2)cc1,?
Cc1ccc(-n2ncc3c(N(C)Cc4ccccc4)ncnc32)cc1,31.6µM*

(more compounds)
SMILES,ClpP mod
CCCc1cc(=O)oc2c(C)c3c(cc12)CN(CCc1ccc(Cl)cc1)CO3,3.9%
Cn1c(=O)n(C)c2cc(CNCc3ccccc3Cl)ccc21,-1.8%
Cc1ccc(CNS(=O)(=O)c2cc(C(=O)Nc3ccc(C(C)C)cc3)ccc2F)cc1,-6.2%
NC(=O)COc1ccc(-c2noc(COc3ccc(Cl)cc3)n2)cc1,-1.2%
COc1cc(NC(=O)c2nnn(CC(=O)Nc3cc(C)ccc3C)c2N)cc(OC)c1,0.0%
O=C(Nc1ccc(Br)cc1)c1cc2nc(-c3ccccc3)cc(-c3ccccc3)n2n1,-7.7%
Cc1cccc(-c2nc(Cn3c(SCc4cccc(C(F)(F)F)c4)nc4ccncc43)c(C)o2)c1,0.8%
Cc1nn(C)c2c1c(C(F)(F)F)cc(=O)n2C(C)C(=O)NCCC(C)C (stereo unspecified),4.3%
O=C(NCC(c1ccc2c(c1)OCO2)N1CCN(c2ccccc2)CC1)c1ccccc1F (stereo unspecified),-1.7%
CCCCCn1c(=N)c(S(=O)(=O)c2ccccc2)cc2c(=O)n3ccccc3nc21,-3.5%
O=C(CSCc1cnn(-c2ccccc2)c1-n1cccc1)NCc1cccc(Cl)c1,-22.2%
CCCNC(=O)C1CCN(C(=O)N2CC(C)Oc3ccccc32)CC1 (stereo unspecified),-1.1%
CCCOc1cccc(C(=O)Nc2cccc3cccnc23)c1,-8.5%
O=C(c1cccc2ccccc12)N1CCN(S(=O)(=O)c2ccccc2)CC1,0.8%
Fc1ccc(Nc2nc(SCc3ccccc3Cl)nc3ccccc23)cc1,31.6µM*
CCOc1ccc(-c2cc(C(=O)Oc3ccc(C#N)cc3)no2)cc1,-16.9%
Cc1cc([N+](C)(C)C)cc(C)c1/C=C/c1ccnc2ccccc12,-0.8%
CC(C)c1ccc(NC(=O)Nc2csc3c2CCCC3)cc1,-1.8%
COC(=O)c1ccccc1NC(=O)c1nc(S(=O)(=O)Cc2cccc(C)c2)ncc1Cl,1.2%
Cc1ccc(Cl)cc1NC(=O)c1oc2ccc(S(=O)(=O)N3CCC4(CC3)OCCO4)cc2c1C,3.8%
COc1ccc(Cl)cc1NC(=O)Cn1c(=O)n(CCC(=O)NCc2ccc3c(c2)OCO3)c(=O)c2ccccc21,-4.6%
CCN1CCN(c2ncnc3c2cnn3-c2cc(Cl)ccc2C)CC1,-2.4%
O=C1c2[nH]nc(-c3ccccc3O)c2C(c2cccc(Cl)c2)N1Cc1cccnc1 (stereo unspecified),-2.3%
COc1ccccc1CNC(=O)CCCN1C(=O)CSc2c1c(C)nn2-c1ccccc1,0.3%
COC(=O)c1ccc(Cl)cc1NC(=O)N(C)CCc1c(C)nn(C)c1C,-12.9%
CCc1ccc(N2CCn3c2nc2c3c(=O)n(Cc3cccc(C)c3)c(=O)n2C)cc1,3.1%
CC(C)N(C(=O)CSc1nc2ccc(Cl)cc2[nH]1)c1ccccc1,0.8%
COC(=O)c1ccccc1NC(=O)N1CCc2c(sc3c2CCCC3)C1c1ccc(F)cc1 (stereo unspecified),-6.1%
O=C(c1cccn1-c1nnc(N2CCCC2)s1)N1CCN(c2ccc(F)cc2)CC1,-0.3%
COc1ccc(Nc2nc3c(S(=O)(=O)c4ccccc4)nnn3c3ccc(Cl)cc23)c(OC)c1,-8.5%
Cc1nnc(N2CCN(c3ccccc3F)CC2)c2c1nnn2Cc1ccccc1,?
CCOC(=O)c1ccc(NC(=O)c2cc3c(=O)n(C)c4ccccc4c3n2C)cc1,-4.6%
Cc1ccccc1C(=O)Nc1sc2c(c1C(=O)N1CCCCC1)CCC(C)C2 (stereo unspecified),-5.6%
CCc1cccc(-n2c(=O)c3cccnc3n2CC(=O)Nc2ccccc2C(=O)OC)c1,4.1%
Cc1cc(C)c(NS(=O)(=O)c2cc(-c3onc(C)c3C)ccc2C)c(C)c1,0.6%
CCc1cccc(C)c1NC(=O)C1CCN(S(=O)(=O)c2c(C)noc2/C=C/c2c(C)cc(C)cc2C)CC1,-2.6%
COc1ccc(C)cc1-n1cnc2cc(C(=O)NC3CCCC3)ccc21,-3.2%
O=C(COC(=O)c1cccc(NC(=O)c2ccc(Br)cc2)c1)c1ccc(Br)cc1,1.7%
CCC(=O)N1c2ccccc2CC1C(=O)NCc1cc(OC)ccc1OC (stereo unspecified),0.0%
Cc1cccc(NC(=O)CCn2nc(-c3ccccc3)c3ccccc3c2=O)c1,-1.3%
CCOC(=O)c1cnc2ccc(C)cc2c1Nc1ccc(OCc2ccccc2Cl)cc1,0.2%
COc1ccc(CCNC(=O)CSc2cn(CCNC(=O)c3ccccc3F)c3ccccc23)cc1OC,-1.8%
CCOc1ccccc1Nc1sc(C(=O)c2ccccc2)c(N)c1C(=O)Nc1ccc(F)cc1,1.7%
CCOc1ccc(-n2nc(CO)c(C(=O)NCc3cccc(OC)c3)n2)cc1,?
Cc1ccc(NC(=O)CSc2nc(-c3ccccc3Cl)nc3cc(=O)[nH]n23)c(C)c1,-1.0%
Cc1c(Cl)cccc1NC(=O)CN(CCc1ccccc1)S(=O)(=O)c1ccccc1,1.4%
O=C(Cn1ncc2ccsc2c1=O)N1CCN(c2ccccc2F)CC1,0.0%
Cc1cccc(C(CC(=O)NCC2(c3ccccc3)CCCC2)c2ccccc2)c1O (stereo unspecified),-11.0%
Clc1ccc2c(c1)NC(c1ccncc1)=NC(c1cccs1)=N2,-0.9%
CCCCNC(=O)C1CCN(Cc2nc(-c3ccc(OC)c(OC)c3)oc2C)CC1,-4.0%

New compounds follow
SMILES,ClpP mod
Cn1cnnc1SCC(=O)Nc1ccc(C#N)cc1,-0.8%
COc1ccc(C(=O)Nc2ccc(C(=O)OCc3cc(=O)n4nc(C(C)C)sc4n3)cc2)cc1,-11.4%
COc1ccc(C(=O)C[n+]2cc(Br)cc(Br)c2)cc1,-0.6%
Cc1ccc(C)c(CN2C(=O)CSc3ccc(C(=O)NCCc4ccc(Cl)cc4)cc32)c1,-0.4%
Cc1nc2cc(-c3ccccc3)nn2c(C)c1CCC(=O)Nc1ccc(F)cc1F,-26.3%
Cc1ccc(CN(C(=O)COc2cccc(Cl)c2)c2ccccn2)o1,0.4%
Cc1ccc(C)c(Cn2c3ccccc3c3cnn(CC(=O)NCc4ccccc4)c(=O)c32)c1,?
O=C(c1cccs1)N1CCCc2cc(NS(=O)(=O)c3cc(F)ccc3F)ccc21,-2.0%
O=C(Nc1cccc(C(F)(F)F)c1)c1ccc2snnc2c1,-0.1%
CCOc1ccc(S(=O)(=O)c2c(C(=O)c3ccc(CC)cc3)cnc3ccc(C)cc23)cc1,-8.4%
CC(=O)Nc1ccc(NC(=O)CSc2nccn2Cc2ccc3c(c2)OCO3)cc1,-2.3%
COc1ccc(OC)c(NC(=O)C(C)n2c(=O)c(-c3ccccc3NC(C)=O)nc3ccccc32)c1 (stereo unspecified),-2.8%
CN1CCN(C2(CNC(=O)c3ccc([N+](=O)[O-])cc3)CCCCC2)CC1,-1.3%
Cc1cc2nnc(SCc3ccc(F)cc3)n2c2ccccc12,-23.5%
CCOC(=O)c1ccc(NC(=O)c2csnn2)cc1,0.2%
CCCn1c2ccccc2c2cnn(CC(=O)Nc3ccc(C)cc3Br)c(=O)c21,-4.0%
CCc1ccc(NC(=O)C2CCCN(S(=O)(=O)c3cccc4nonc34)C2)cc1 (stereo unspecified),0.7%
COc1ccc(C)c2sc(N(Cc3cccnc3)C(=O)COc3ccccc3)nc12,-4.3%
Cc1ccc(Cl)cc1NC(=O)C1CCCN(S(=O)(=O)c2cccc3cccnc23)C1 (stereo unspecified),-4.3%
CCOCCc1nn2c(=O)cc(COC(=O)COc3ccc(C)c(C)c3)nc2s1,-1.4%
CCN(CC)c1nn2c(=O)c(C(=O)NCc3cccc(OC)c3OC)cnc2s1,?
COc1ccc(CN(Cc2ccccc2)C(=O)Nc2ccccc2)cc1COc1ccc(NC(C)=O)cc1,-2.3%
CC(C)Cc1nn2c(=O)cc(COC(=O)CNC(=O)c3ccc(C(C)(C)C)cc3)nc2s1,-5.1%
Cc1nn2c(C)c(C(=O)NCc3cccc(Br)c3)cnc2c1-c1ccccc1,-3.6%
COCCNc1nc2c(c(=O)n(C)c(=O)n2C)n1Cc1c(F)cccc1Cl,-0.1%

Quoted from the listing:
ClpP mod result of COC(=O)c1ccccc1NC(=O)N1CCc2c(sc3c2CCCC3)C1c1ccc(F)cc1 (stereo unspecified) : -6.1%
ClpP mod result of Cc1cccc(NC(=O)CCn2nc(-c3ccccc3)c3ccccc3c2=O)c1 : -1.3%
ClpP mod result of COc1ccc(NC(=O)CCS(=O)(=O)c2nc(-c3ccc4c(c3)OCO4)cc(C(F)(F)F)n2)c(OC)c1 : 4.2%
ClpP mod result of CCCNC(=O)C1CCN(C(=O)N2CC(C)Oc3ccccc32)CC1 (stereo unspecified) : -1.1%
ClpP mod result of CCOC(=O)c1ccc(NC(=O)c2cc3c(=O)n(C)c4ccccc4c3n2C)cc1 : -4.6%
ClpP mod result of CCc1ccc(NC(=O)C2CCCN(S(=O)(=O)c3cccc4nonc34)C2)cc1 (stereo unspecified) : 0.7%
ClpP mod result of COc1ccc(C)c2sc(N(Cc3cccnc3)C(=O)COc3ccccc3)nc12 : -4.3%

(cont.)
SMILES,ClpP mod
CC(C)c1nn2c(=O)cc(COC(=O)c3ccc(NC(=O)c4cccs4)cc3)nc2s1,0.5%
COc1ccc(S(=O)(=O)c2cnc3cc(OC)c(OC)cc3c2N2CCCC(C)C2)cc1 (stereo unspecified),1.3%
COc1ccc(Cl)cc1NC(=O)c1c(NCc2ccc(C)o2)sc2c1CCC(C)C2 (stereo unspecified),0.3%
CCOc1ccccc1CNC(=O)c1ccc2nc(N3CCC(C)CC3)sc2c1,-5.5%
CCOC(=O)C1CCN(c2nc3c(S(=O)(=O)c4ccc(CC)cc4)nnn3c3ccc(Cl)cc23)CC1,3.9%
Cc1[nH]n2c(=O)cc(-c3ccccc3Cl)nc2c1-c1ccccc1,-18.1%
Cc1ccc(Cl)cc1N1CCN(C(=O)c2c(C)oc3ncnc(N4CCCCC4)c23)CC1,-1.0%
Cc1oc(C)c2c(=O)cc(-c3ccc4c(c3)OCO4)cc(OC(=O)c3cccc(Br)c3)c12,-1.4%
COc1ccc(CNS(=O)(=O)c2ccc3c(c2)NC(=O)C(C)C(=O)N3)cc1 (stereo unspecified),-0.8%
